Assay outcomes (PubChem BioAssay)
TR SRC2 fluor cs = alters Texas Red total fluorescence, flagging assay interference; TRb/SRC2 Texas Red total fluorescence interference; Potency, µM (titrated, usually from 106 µM), inactives show at the highest dose fluorescence change, negative = quenching; 0.29% of 280,000 active; AID 1479; active = well fitted curve in either direction with a large enough effect; inconclusive = small, poorly fitted or top-dose-only effect
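Flags fluorescent or light-absorbing compounds by total fluorescence, S + 2P, at 555 nm excitation and 632 nm emission. Mixture: 20 nM Texas Red SRC2 peptide, 0.6 uM human TRb LBD, 1 uM T3, 5% DMSO; compound exposure 5 h at ambient temperature.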
Lamin A splicing = modulators of lamin A splicing; HeLa LMNA splicing GFP/RFP minigene ratio, 48 h; Potency, µM (titrated, usually from 46.1 µM), inactives show at the highest dose ratio change, negative = inhibition, usual class: inhibitors; 0.01% of 200,000 active; AID 1487; active = well fitted inhibition curve with a large enough effect in the signal ratio, with a control signal flat, not every such curve was filed as active; inconclusive = small, poorly fitted or top-dose-only effect, or effect the other way, or a change in a side signal; the % refers to the signal ratio
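Read-out is the ratio of GFP to DsRed2 object intensity, acquired by 488 nm laser-scanning cytometry on HeLa lamin A-EGFP minigene reporter cells. Compound incubation 48 hrs at 37 °C in Opti-MEM with 2% FBS; DMSO 0.5% final.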
RECQ1 inh = RECQ1 (human) helicase inhibition; P46063; RECQ1 DNA unwinding, red fluorescence kinetic read; Potency, µM (highest dose often 57.3 µM), for inactives: at the top dose activity, negative = inhibition, hits mostly inhibitors; 0.54% of 240,000 active; AID 2549;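 also: plate controls were vehicle for no effect and no enzyme for full effect; nearly all actives have a fitted effect of over 30% in size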
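RECQ1T1 50 nM; forked duplex (20 bp + 30-nt ss tails) 200 nM, ATP 2 mM final; pH 8.0, 2 mM MgCl2, 2.5 ug/ml poly(dI-dC); 15 min compound preincubation; discontinuous kinetic read over 2 h at RT.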
TRb SRC2 PPI = TRbeta-SRC2 interaction inhibition; AID 1469; 0.065% of 280,000 active; Potency, µM (doses to about 106 µM), without a hit: at the top dose activity change, negative = inhibition, usual class: inhibitors; TRbeta-SRC2 peptide binding, fluorescence polarization; receptor liganded with 1 µM T3;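 also: plate controls were bound peptide for no effect and peptide without receptor for full effect; nearly all actives have a fitted effect of over 50% in size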
Target sequence (P10828 whole entry, looked up): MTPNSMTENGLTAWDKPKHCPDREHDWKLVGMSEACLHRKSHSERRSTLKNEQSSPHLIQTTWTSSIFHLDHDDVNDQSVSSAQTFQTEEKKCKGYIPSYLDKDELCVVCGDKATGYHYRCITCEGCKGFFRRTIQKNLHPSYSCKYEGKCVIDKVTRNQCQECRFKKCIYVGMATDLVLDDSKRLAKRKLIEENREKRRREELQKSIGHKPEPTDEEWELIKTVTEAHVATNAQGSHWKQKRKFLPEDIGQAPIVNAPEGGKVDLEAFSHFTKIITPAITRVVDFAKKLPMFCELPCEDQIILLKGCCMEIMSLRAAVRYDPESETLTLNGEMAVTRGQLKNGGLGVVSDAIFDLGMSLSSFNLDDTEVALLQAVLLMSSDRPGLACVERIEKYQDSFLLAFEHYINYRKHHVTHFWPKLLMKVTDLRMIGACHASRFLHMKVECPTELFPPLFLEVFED
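Binding of a 20-amino-acid Texas Red SRC2 peptide (20 nM) to TRb ligand-binding domain (0.6 uM) with agonist T3 at 1 uM was followed by fluorescence polarization after a 5 hr room-temperature incubation.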
Active calls of the source: *; i = inactive; ? = inconclusive; · = not tested or not shown; & = joins results of further samples; [ ] = another dose, or the depositor's remark. Unless noted, calls follow the shape of the dose curve; as a rule, active = well fitted curve in the direction sought with a large enough effect; inconclusive = small, poorly fitted or top-dose-only effect, or another doubt; inactive = no such curve, though single readings can be large; an effect the other way counts as inactive or inconclusive. Unless noted, % is scaled to controls: 0 for no effect and ±100 for the full control effect; potency is read from the fitted curve at half-maximal effect. This is a subset (hit frequency here may not be typical).

SMILES | RECQ1 inh | Lamin A splicing | TRb SRC2 PPI | TR SRC2 fluor cs
O=C(OC1CCOC1=O)c1cccc(S(=O)(=O)Nc2cccc(Cl)c2)c1 (centres undefined) | 4.3% | -9.1% | 4.1% | 0.0%
CC(=O)c1nc2ccccc2n1S(=O)(=O)c1ccc(Cl)cc1 | -9.3% | -2.8% | -4.5% | 1.2%
N=C(N)N1CCc2ccccc2C1 | -3.5% | -2.0%&-9.4% | -1.7%&3.8% | -2.6%&-0.3%
Cc1cc(OCCCCCN2CCCC2)ccc1Cl | -12.1% | -14.0%[46 µM] | -8.0% | -1.8%
CCCNC[C@H](O)COc1ccccc1C(=O)CCc1ccccc1 | -1.4% | ? | -2.6% | -6.3%
CC(C)c1ccc(/C=N/Nc2cc(N3CCOCC3)nc(N3CCOCC3)n2)cc1 | i | ? | 4.4% | 1.8%
O=C(O)c1ccc2nc3c(nc2c1)-c1ccccc1C3=O | -9.8% | 22.7%[46 µM] | -4.3% | -9.5%
O=C(COC(=O)C12CC3CC(CC(C3)C1)C2)NCCc1ccccc1 | ? | -7.8% | -8.0% | 2.8%
NC(N)=[N+]1CCc2ccccc2C1 | i | ? | -6.3% | ?
COc1cc(C(N)=O)cc(Br)c1OC | -14.9% | 16.5% | 3.5% | -0.5%
CC(C)(C(=O)O)c1ccc(C(O)CCCN2CCC(C(O)(c3ccccc3)c3ccccc3)CC2)cc1 (centres undefined) | -13.6%&-10.6% | ? | 6.2%&-4.6%&0.1% | -16.1%&-17.1%&3.8%
Cc1ccc(-c2nnn(CC(=O)Nc3ccc(S(=O)(=O)N4CCC(C)CC4)cc3)n2)cc1 | i | 15.5% | 2.6% | -8.7%
CC[C@H](C)[C@H]1O[C@]2(CC[C@@H]1C)C[C@@H]1C[C@@H](C/C=C(\C)[C@H](O[C@@H]3C[C@H](OC)[C@H](O[C@@H]4C[C@H](OC)[C@@H](O)[C@H](C)O4)[C@H](C)O3)[C@@H](C)/C=C/C=C3\CO[C@@H]4[C@H](O)C(C)=C[C@@H](C(=O)O1)[C@]34O)O2 | -7.0% | ? | 7.3% | -2.4%
CC[C@@H](C)[C@H]1O[C@]2(CC[C@@H]1C)C[C@@H]1C[C@H](C/C=C(/C)[C@H](O[C@@H]3C[C@H](OC)[C@H](O[C@@H]4C[C@H](OC)[C@@H](O)[C@H](C)O4)[C@H](C)O3)[C@@H](C)/C=C\C=C3CO[C@@H]4[C@H](O)C(C)=C[C@@H](C(=O)O1)[C@]34O)O2 (tested in a mixture with another compound) | 11.3% | · | 3.6% | -0.9%
O=C(/C=C/c1c(C(=O)O)[nH]c2cc(Cl)cc(Cl)c12)Nc1ccccc1 | -9.9% | · | 10.5% | -4.3%
Cc1ccc(S(=O)(=O)NC(=O)NN2CCCCCC2)cc1 | -13.7% | ? | -3.9% | 0.7%
CC(C)[N+]1(C)[C@@H]2CC[C@H]1CC(OC(=O)[C@@H](CO)c1ccccc1)C2 (some centres undefined) | -0.7% | -6.8% | -2.3% | 0.4%
O=C(O)c1cccnc1Sc1ccccc1 | 4.4% | -2.1% | -2.5% | 0.0%
CCn1c(COc2ccc(Cl)cc2)nnc1SCC(=O)Nc1ccc2c(c1)OCO2 | -0.4% | 18.9% | 0.3% | -1.3%
N=C(N)c1ccc(OCCCCCOc2ccc(C(=N)N)cc2)cc1 | 23.1% | ? | 2.3%[201 µM] | -2.6%[201 µM]
CC(=O)C(Sc1ncnc2sc3c(c12)CCCC3)C(C)=O | -6.2% | -20.5%[46 µM] | -3.8% | -1.1%
CCCN(CCC)C(C)C(=O)NCC1(c2ccccc2)CCCC1 (centres undefined) | 1.4% | -6.2%[46 µM] | -0.7%[53 µM] | -0.1%[53 µM]

Whole records, looked up by structure. Order of screens: RECQ1 inh	Lamin A splicing	TRb SRC2 PPI	TR SRC2 fluor cs
CC(C)(C(=O)O)c1ccc(C(O)CCCN2CCC(C(O)(c3ccccc3)c3ccccc3)CC2)cc1 (centres undefined) in the list: -13.6%&-10.6%	?	6.2%&-4.6%&0.1%	-16.1%&-17.1%&3.8%
Cc1ccc(S(=O)(=O)NC(=O)NN2CCCCCC2)cc1 in the list: -13.7%	?	-3.9%	0.7%
CC[C@H](C)[C@H]1O[C@]2(CC[C@@H]1C)C[C@@H]1C[C@@H](C/C=C(\C)[C@H](O[C@@H]3C[C@H](OC)[C@H](O[C@@H]4C[C@H](OC)[C@@H](O)[C@H](C)O4)[C@H](C)O3)[C@@H](C)/C=C/C=C3\CO[C@@H]4[C@H](O)C(C)=C[C@@H](C(=O)O1)[C@]34O)O2 in the list: -7.0%	?	7.3%	-2.4%
NC(N)=[N+]1CCc2ccccc2C1 in the list: i	?	-6.3%	?
Cc1cc(OCCCCCN2CCCC2)ccc1Cl in the list: -12.1%	-14.0%[46 µM]	-8.0%	-1.8%

Three of the compounds above, as labelled records.
CC[C@H](C)[C@H]1O[C@]2(CC[C@@H]1C)C[C@@H]1C[C@@H](C/C=C(\C)[C@H](O[C@@H]3C[C@H](OC)[C@H](O[C@@H]4C[C@H](OC)[C@@H](O)[C@H](C)O4)[C@H](C)O3)[C@@H](C)/C=C/C=C3\CO[C@@H]4[C@H](O)C(C)=C[C@@H](C(=O)O1)[C@]34O)O2
  RECQ1 inh: -7.0%
  Lamin A splicing: ?
  TRb SRC2 PPI: 7.3%
  TR SRC2 fluor cs: -2.4%

N=C(N)N1CCc2ccccc2C1
  RECQ1 inh: -3.5%
  Lamin A splicing: -2.0%&-9.4%
  TRb SRC2 PPI: -1.7%&3.8%
  TR SRC2 fluor cs: -2.6%&-0.3%

CC(C)[N+]1(C)[C@@H]2CC[C@H]1CC(OC(=O)[C@@H](CO)c1ccccc1)C2 (some centres undefined)
  RECQ1 inh: -0.7%
  Lamin A splicing: -6.8%
  TRb SRC2 PPI: -2.3%
  TR SRC2 fluor cs: 0.4%
